Screening results deposited in PubChem BioAssay by PCMD.
Calb biofilm kill – clotrimazole potentiators killing C. albicans biofilm, primary screen, 4-compound mixtures; C. albicans biofilm persisters + clotrimazole, fluorescence viability; primary screen in compound mixtures of four per well; inhibition, % at 7.6 µM; actives 0.02% (n = 120,000);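 active means inhibition above 30.3% in the primary screen of four-compound pools, then above 30% when the compound was retested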;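 further: compounds exposed to preformed 24 h biofilms for 48 h; the number belongs to the whole pool; some results filed as inactive read as strong as hits; inactives centre near 12; 0% = biofilm with clotrimazole alone and 100% = kill control; retested singly at about 60 µM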
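Probe or stimulus – Clotrimazole 50 µg/mL co-treatment · System – C. albicans biofilms · Schedule – 24 h biofilm formation, then 48 h compound exposure, 37 °C · Evaluation – percent inhibition of biofilm viability · Technique – 2-h Alamar Blue fluorescence, 535/590 nm excitation/emission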
Starred values were filed as active, the others as inactive.

SMILES	Calb biofilm kill
[O-][n+]1c2c(nn1-c1ccccc1)/C(=N/O)CCC2	13.7
COc1cccc(NC(=O)CN2C(=O)NC(C)(CC(C)C)C2=O)c1 (stereo unspecified)	14.7
C=CCn1c(C(C)NC(=O)c2ccc(C)cc2)n[nH]c1=S (stereo unspecified)	11.5
Cc1ccc(OCC(=O)Nc2ccc(N3CCN(S(C)(=O)=O)CC3)cc2)c(C)c1	11.9
COc1ccc(CC(=O)NNC(=O)c2cccnc2)cc1OC	25.2
COc1ccc(N2CCCC2=N)c(OC)c1	3.4
COc1ccc2c(-c3ccccc3)cc(SC(C)C(N)=O)nc2c1 (stereo unspecified)	8.8
O=C1CC(c2ccccc2)CC(O)=C1C=NCCc1ccccc1 (stereo unspecified)	-2.1
CN(CCc1cnn(C)c1)Cc1nc(CC2CC2)no1	11.0
O=C(O)c1cc(Cl)c2c(c1)[C@@H]1C=CC[C@@H]1[C@H](c1ccc(S(=O)(=O)N3CCOCC3)cc1)N2	1.0
COC(=O)c1sc2ccccc2c1NC(=O)c1ccc(S(=O)(=O)N2CCCCC2C)cc1 (stereo unspecified)	13.4
COC(=O)[C@@H]1C[C@@]2(O)[C@@H](O)[C@@H](O)[C@@H](O)C[C@H]2N1C/C=C/c1ccccc1	13.6
O=C(Cn1cc([N+](=O)[O-])cn1)Nc1nccs1	24.1
O=C(Nc1ccc2oc(=O)ccc2c1)c1ccc(-c2cccc(Cl)c2)o1	29.3
O=C(N=Nc1c(O)n(Cc2ccccc2)c2ccccc12)c1ccncc1	-5.0
CCOc1ccc(N(C(C)C(=O)Nc2cccnc2)S(C)(=O)=O)cc1 (stereo unspecified)	21.2
Cc1cc(OCC(O)CNC(C)(C)C)ccc1Cl (stereo unspecified)	-2.0
O=C(c1ccc([N+](=O)[O-])c(CS(=O)(=O)c2ccc(Cl)cc2)c1)N1CCCCC1	12.3
COc1ccc(-c2nc3ccccc3s2)cc1NC(C)=O	14.1
O=C(NCc1csc(-c2cccs2)n1)c1ccccc1	5.5
COC(=O)c1ccccc1NC(=O)CCCn1nc([N+](=O)[O-])c(Br)c1C	14.9
O=C1c2ccccc2CN1CCSC(=S)N1CCOCC1	10.7
O=C(NCc1ccc2c(c1)OCO2)C1COc2ccccc2O1 (stereo unspecified)	21.3
CS(=O)(=O)c1ccc(C(=O)Nc2ccc(N3CCOCC3)cc2)c(Cl)c1	19.5
CS(=O)Cc1cc(Sc2ccccc2)nc(-c2cccnc2)n1 (stereo unspecified)	13.6
CC1CC(O)C(C)CN1 (stereo unspecified)	19.1
C=CCc1cccc2cc(C(=O)NC3CCCC3)c(=O)oc12	15.4
CCOC(=O)NC(=O)c1cn(Nc2ccccc2)c(=O)[nH]c1=O	16.6
COc1cc(NC(=O)CSc2nc3ccccc3cc2C)c(C(=O)O)cc1OC	13.2
CCOc1ccccc1NC(=O)C1CCN(C(=O)Cc2ccccc2)CC1	18.3
Cc1nnc(SCc2ccccc2)n(N)c1=O	2.2
O=C(Cn1c(=O)n(CCc2c[nH]c3ccccc23)c(=O)c2cccnc21)Nc1ccccc1F	17.0
C=CCN1CC(C(=O)N2CCC(Cc3ccc(Cl)cc3)(C(=O)OCC)CC2)CC1=O (stereo unspecified)	28.5
O=C(CSc1ncn[nH]1)Nc1nc(-c2cccc([N+](=O)[O-])c2)cs1	15.8
Cc1ccc([N+](=O)[O-])cc1NC(=O)c1ccoc1C	12.7
CC(=O)/C(=C/c1ccc(N(C)C)cc1)C(=O)c1ccccc1	24.4
CC(C)CCSc1cc(NCCO)c([N+](=O)[O-])c2nonc12	4.2
COc1c(C)cc(C(=O)C2CCCN(C(=O)c3ccc4cc[nH]c4c3)C2)cc1C (stereo unspecified)	14.0
CC(/C=N/NC(=O)CSc1ccccn1)=C\c1ccc(C(C)C)cc1	-6.2
CCNC(=S)N1CCN(S(=O)(=O)c2ccc(C)c(C)c2)CC1	16.7

Laid out differently: results already given.
Compound,Calb biofilm kill
C=CCc1cccc2cc(C(=O)NC3CCCC3)c(=O)oc12,15.4
CCOC(=O)NC(=O)c1cn(Nc2ccccc2)c(=O)[nH]c1=O,16.6
COc1cc(NC(=O)CSc2nc3ccccc3cc2C)c(C(=O)O)cc1OC,13.2

The results go on:
SMILES	Calb biofilm kill
COc1cc(/C=N/NC(=S)Nc2cccc(C(=O)O)c2)ccc1O	10.3
Cn1c(=O)c2c(nc(N/N=C3\CCCc4ccccc43)n2Cc2ccc(F)cc2)n(C)c1=O	5.6
CCC1C=C(c2ccccc2)C=CN=C1N(CC)CC (stereo unspecified)	9.4
CCNC(=S)N1CCN=C1Nc1nc(C)cc(C)n1	9.0
CN(C(=S)Nc1ccccc1)c1ccccc1	3.1
COc1ccccc1CCc1nnc(CCC(=O)NC(C)Cc2cccc(C)n2)o1 (stereo unspecified)	4.3
O=C1NC(Cc2c[nH]c3ccccc23)C(=O)N1Cc1cccc2ccccc12 (stereo unspecified)	11.9
O=C(O)CCn1c(SCc2cc(=O)n3ccccc3n2)nc2ccsc2c1=O	19.9
O=C(Nc1ccc(N2CCOCC2)cc1)c1cc2c(s1)CCCC2	-4.5
COc1ccccc1NS(=O)(=O)c1cccc(C(=O)N/N=C/c2ccc(NC(C)=O)cc2)c1	-30.3
COc1ccc(C(=O)Nc2c(C(C)(C)C)nn(C)c2C(C)(C)C)cc1	23.7
CCN(CC)c1ccc(C=Nc2cc(C)cc(C)c2)c(O)c1	4.1
Cc1ccc(S(=O)(=O)Nc2ccc(C(OC(=O)c3ccccc3[N+](=O)[O-])(C(F)(F)F)C(F)(F)F)cc2)cc1	13.8
c1ccc2c(Nc3nc(N4CCOCC4)c4ccccc4n3)cccc2c1	12.2
COc1ccc(CNC(=O)CN(C2CCCCC2)S(C)(=O)=O)cc1	4.9
Cc1cccc(-n2c(CCc3ccccc3)nnc2SCC(=O)c2ccccc2)c1	14.5
Cc1c(C(=O)NCc2ccco2)cccc1[N+](=O)[O-]	16.1
Cc1cccc(CN2CCN(c3nc4nonc4nc3NC3CC3)CC2=O)c1	9.3
c1cnc2ccc(C(c3nnnn3C3CCCCC3)N3CCCCC3)cc2c1 (stereo unspecified)	-8.0
O=C(Oc1cccc(C(=S)N2CCCCC2)c1)c1ccccc1	17.2
CC(=O)OC[C@H]1O[C@@H](O/N=C(\C)CCN2CCCCc3nc(C)c(C)cc32)[C@H](OC(C)=O)[C@@H](OC(C)=O)[C@@H]1OC(C)=O	16.5
Cc1ccc2[nH]c(=O)cc(C(=O)OCC(=O)c3ccc(F)cc3)c2c1	0.4
O=C(COc1ccc(C(=O)c2ccccc2)cc1)NCc1ccc(F)cc1	15.4
Cc1ccc(-n2cc(CN3CCN(Cc4nccn4C)CC3)c(-c3ccc(F)cc3)n2)cc1	2.4
COCCNC(=O)C(=O)NCC1OCCN1S(=O)(=O)c1ccc2c(c1)OCCO2 (stereo unspecified)	21.7
Cc1ccc(S(=O)(=O)/N=C(\N)c2ccc(F)cc2)cc1	3.8
CCNc1sc(C(=O)OCC)c(N)c1C#N	-3.6
CCOc1ccccc1/C=N/NC(=O)c1cccc(Cl)c1	5.1
COc1ccc(CCNCC(O)Cn2ccc3ccccc32)cc1OC (stereo unspecified)	21.5
O=C(NCc1ccco1)C(c1ccccc1)N(Cc1ccccc1)C(=O)Cn1nnc2ccccc21 (stereo unspecified)	19.3
Nc1ccc(Br)cc1C(=O)O	1.8
Cn1nccc1NC(=O)CSCC(=O)O	17.5
CCOc1ccc(Nc2nc(Cl)nc(N3CCN(c4ccc(OC)cc4)CC3)n2)cc1	8.9
COc1cccc(CCNc2ccc(N3C(=O)CC(C)C3=O)cc2[N+](=O)[O-])c1 (stereo unspecified)	7.2
Cc1onc(-c2c(Cl)cccc2Cl)c1C(=O)O/N=C(\C#N)c1c(Cl)cccc1Cl	18.3
CC(/C=C/c1ccccc1)=N\NC(=O)c1ccc(Br)cc1	17.6
CNC(=S)N1N=C(c2ccc(OC)cc2)CC1c1ccccc1Cl (stereo unspecified)	28.1
CC12CCC(C(=O)Nc3cccc(Cl)c3)(C(Br)C1=O)C2(C)C (stereo unspecified)	6.9
NS(=O)(=O)c1ccc(CCNC(=O)CSc2ccc(Cl)cc2)cc1	9.4
COc1cc(/C=C2\SC(=O)N(Cc3ccc(Cl)cc3)C2=O)cc([N+](=O)[O-])c1O	3.2

Grouped by structure: the entries above containing fluorine (7)
SMILES	Calb biofilm kill
O=C(Cn1c(=O)n(CCc2c[nH]c3ccccc23)c(=O)c2cccnc21)Nc1ccccc1F	17.0
Cn1c(=O)c2c(nc(N/N=C3\CCCc4ccccc43)n2Cc2ccc(F)cc2)n(C)c1=O	5.6
Cc1ccc(S(=O)(=O)Nc2ccc(C(OC(=O)c3ccccc3[N+](=O)[O-])(C(F)(F)F)C(F)(F)F)cc2)cc1	13.8
Cc1ccc2[nH]c(=O)cc(C(=O)OCC(=O)c3ccc(F)cc3)c2c1	0.4
O=C(COc1ccc(C(=O)c2ccccc2)cc1)NCc1ccc(F)cc1	15.4
Cc1ccc(-n2cc(CN3CCN(Cc4nccn4C)CC3)c(-c3ccc(F)cc3)n2)cc1	2.4
Cc1ccc(S(=O)(=O)/N=C(\N)c2ccc(F)cc2)cc1	3.8

Later entries
SMILES	Calb biofilm kill
Cc1c(O)ccc(NC(=O)/C=C/c2ccccc2)c1C	5.5
CC(C)CNC(=O)CN(c1cccc(Cl)c1)S(C)(=O)=O	4.3
COc1ccc(CCNC(=O)c2cc(-c3ccncc3)nc3c(Cl)cccc23)cc1OC	14.8
CCN(CC)c1ccc(C(=O)N/N=C/c2ccc(N3CCOCC3)cc2)cc1	5.6
CC1CC(C)(C)N2C(=O)C(=C(C#N)C#N)c3cccc1c32 (stereo unspecified)	32.7
Cc1ccccc1CSc1nnc(-c2ccccc2)c(=O)[nH]1	19.2
CCC(Sc1nc(C)cc(C)n1)C(=O)Nc1cc(C)on1 (stereo unspecified)	4.5
CC1=NN(c2ccccc2)C(=O)/C1=C\c1sccc1C	6.8
Cc1cc(C(F)(F)F)nc(CCNCc2c(C(=O)N3CCCC3)nc3ccccn23)n1	12.4
CCn1nc(C)c(CNC(=O)CCc2nnc(-c3ccc(C(C)=O)s3)o2)c1C	2.2
Cc1cc(NC(=O)Nc2ccc(Cl)cc2)n(-c2ccccc2)n1	29.9
CCCCC(c1nnnn1CS(=O)(=O)c1ccc(C)cc1)N1CCN(C)CC1 (stereo unspecified)	15.8
O=C(Cc1ccc(S(=O)(=O)N2CCOCC2)s1)Nc1ccccc1N1CCOCC1	13.4
CC(C)COCC(O)CC(Cc1ccccc1)C(=O)NN (stereo unspecified)	-0.3
CC(=O)Nc1cccc(-c2nn[nH]n2)c1	20.8
O=C(NNC(=S)Nc1ccc(Cl)cc1Cl)c1ccncc1	13.5
O=S(=O)(Nc1cc(S(=O)(=O)N2CCOCC2)ccc1N1CCOCC1)c1ccc2c(c1)OCCO2	18.8
O=C(CCCN1C(=O)S/C(=C\c2ccccc2)C1=O)NNC(=O)c1ccccc1O	1.2
O=C(Nc1ccc(F)cc1F)c1cc2nc3c(c(C(F)(F)F)n2n1)CCCC3	18.5
CC(C)c1c(O)nc(SCCOc2ccc(Cl)cc2)[nH]c1=O	26.1

Sorted by SMILES length (smallest number first): some entries from above
SMILES	Calb biofilm kill
CC(C)CNC(=O)CN(c1cccc(Cl)c1)S(C)(=O)=O	4.3
CCN(CC)c1ccc(C(=O)N/N=C/c2ccc(N3CCOCC3)cc2)cc1	5.6
O=C(Cc1ccc(S(=O)(=O)N2CCOCC2)s1)Nc1ccccc1N1CCOCC1	13.4

Next part:
SMILES	Calb biofilm kill
Cn1cc(C(=O)c2cccc(Cl)c2)cc1C#N	8.7
CC(NS(=O)(=O)c1ccc(CCC(=O)NCc2ccco2)cc1)c1ccccc1 (stereo unspecified)	14.8
CC(c1ccccc1)N(CC(=O)NC1CCCCC1)S(=O)(=O)c1cccc(C(F)(F)F)c1 (stereo unspecified)	3.5
CCOc1ccc(NC(=O)N[C@@H](Cc2ccccc2)C(=O)O)cc1	25.9
COc1cc([N+](=O)[O-])ccc1NC(=O)Nc1ccc2c(c1)OCCO2	9.2
O=C(CSc1nccc(=O)[nH]1)N1CCN(c2ccccc2)CC1	12.4
Cc1ccc(-n2ncc(C#N)c2N)cc1	24.1
O=C(Nc1nccs1)c1cccc(N2C(=O)C3C4C=CC(C4)C3C2=O)c1 (stereo unspecified)	9.4
O=C(N/N=C/c1ccc(O)c([N+](=O)[O-])c1)c1ccncc1	28.9
Cc1noc(C)c1C(=O)NNc1ccc(C(C)C)cc1	12.1
O=C(N/N=C/c1ccc([N+](=O)[O-])o1)c1cn(-c2ccccc2)nc1-c1ccc(F)cc1	8.7
CC(C)(C)NS(=O)(=O)c1ccc(CCC(=O)Nc2ccc3c(c2)OCCO3)cc1	9.7
COc1cccc(CN(C)CC(=O)Nc2c(C)cccc2C(C)C)c1	11.4
COc1cccc(/C=N/NC(=O)CNC(=O)c2cccs2)c1O	4.8
Cc1ccc(S(=O)(=O)N(C)c2c(C)ccc(S(=O)(=O)N3CCN(C=O)CC3)c2C)cc1	12.8
Cc1ccc(N/C(N)=N/c2nc(CSc3ccccn3)cc(=O)[nH]2)c(C)c1	7.9
CC(C)C(=O)Nc1ccc2nn(-c3ccccc3)nc2c1	13.0
CCc1ccc(NC(=O)Cc2ccc(-n3cccc3)cc2)cc1	10.1
Cc1cc(CSc2ccccc2)ccc1NC(=O)c1ccc(C)c([N+](=O)[O-])c1	11.5
COc1cc(NC(=O)CSc2ncnc3scc(-c4ccccc4)c23)c(C(=O)O)cc1OC	12.2
N/C(=N\OC(=O)CCC1CCCC1)c1ccccn1	11.1
O=C(Nc1nccs1)c1ccc(-c2ccc(F)cc2)o1	10.9
O=C(c1cc2ccccc2oc1=O)N(c1ccc(Cl)cc1)C1C=CS(=O)(=O)C1 (stereo unspecified)	16.8
CN(C(=O)COC(=O)c1cncc(Br)c1)C1CCS(=O)(=O)C1 (stereo unspecified)	14.9
Cc1c(Cl)cccc1NC(CC(=O)c1ccccc1)C(=O)OCC(=O)c1cccs1 (stereo unspecified)	1.9

Some of the compounds tested (hit frequency here may not be typical).
